Tgondii IFNg: T. gondii growth inhibition with IFN-gamma, primary screen, cell-based | activity change, negative = inhibition, %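 (about 20 µM by stock and volumes)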 | Toxoplasma gondii growth in IFN-gamma-treated host cells; hits give low values; reference of the scale not given here | 3.8% of 69,000 active | AID 1259416, 2018;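 active = below -70%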;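 note: host cells are HeLa cells infected with Toxoplasma gondii; parasite growth read as luciferase light; one replicate is shown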
The depositor's hits bear a star; i = inactive; & = joins results of further samples.

Sample of the layout, two compounds:
SMILES	Tgondii IFNg
Cc1ccc(-c2cc(-c3ccccc3)c(C#N)c(SCC3CCCCC3)n2)cc1	-17
COc1ccccc1-c1nc(CN(C)S(=O)(=O)c2ccc(C)cc2)c(C)o1	124

All compounds of this part, previewed entries included:
SMILES	Tgondii IFNg
Cc1ccc(-c2cc(-c3ccccc3)c(C#N)c(SCC3CCCCC3)n2)cc1	-17
COc1ccccc1-c1nc(CN(C)S(=O)(=O)c2ccc(C)cc2)c(C)o1	124
COc1ccc(-c2c(C)nc3ccc(Cl)cc3c2-c2ccccc2)cc1OC	-95*
Cn1cnc(S(=O)(=O)N[C@H]2CC[C@@H](CC(=O)NCC3CCCCC3)O[C@@H]2CO)c1	72
CN1CCN(C(=O)c2cc3c(c(-c4cccc(-c5cccnc5)c4)n2)[C@@H](CCO)N(C(=O)CC2CC2)C3)CC1	-15
CC(C)c1ccc(-c2nccn2CCn2cccn2)cc1	7
COc1ccc2c3c([nH]c2c1)[C@@H](CO)N(C(=O)NC(C)C)CC31CN(C(=O)c2ccncc2)C1	18
Cc1cc(C)nc(Nc2ccc(O)cc2)n1	-5
CN1CC(=O)N(c2ccccc2)CC12CCN(C(=O)c1ccc[nH]1)C2 (stereo not drawn)	43
CCN1CCCC(c2c(-c3ccccc3)ncn2Cc2cccnc2)C1 (stereo not drawn)	-4
COc1cccc(NC(=O)Nc2ccc3c(c2)C(=O)N(C)C[C@H](OC)[C@@H](C)CN[C@H](C)CO3)c1	28
N#Cc1cccc(NC(=O)C2=CC3(CCNCC3)Oc3ccccc32)c1	-4
Cc1cccc(NC(=O)Cn2c(=O)cc(C(=O)N3CCc4ccccc4C3)c3ccccc32)c1	2
Cc1cc(C(F)(F)F)nc(CNC(=O)CCc2c(C)nn(C)c2C)n1	1
Cc1ccc2c(c1C)-n1cccc1C1(CCN(S(=O)(=O)c3ccc(Cl)cc3)CC1)N2	18
O=c1ccc2cc(S(=O)(=O)N3CCN(Cc4ccc5c(c4)OCO5)CC3)ccc2[nH]1	-61
FC(F)(F)CCc1ccnc(NCc2ccc3c(c2)OCO3)n1	-5
CCc1ccccc1NC(=O)N1CCC2(CC1)Nc1ccccc1-n1cccc12	18
Cc1ccc(Cn2c(CN3CCC(C(=O)NCc4cccnc4)CC3)cc3ccccc32)cc1	0
c1cc(CN2CC[C@H]3[C@@H]2CCN3CC2CCOCC2)co1	-46
CCS(=O)(=O)N1CCC2(CC1)OC(=O)C(C)=C2C(=O)Nc1ccc(C)cc1C	19
COc1cccc(NC(=O)C[C@@H]2CC[C@@H]3[C@@H](COc4ccc(NC(=O)C5CC5)cc4C(=O)N3C)O2)c1	-9
Cc1ccc(NC(=O)NCC(c2cccnc2)c2cn(C)c3ccccc23)c(Cl)c1 (stereo not drawn)	i
COc1cc(NC(=S)NCCCN(C)C)c(OC)cc1NC(C)=O	-10
C=CCCC(CN1CCCN(C)CC1)Oc1ccc(Cl)cn1 (stereo not drawn)	6
Cc1cccc(CN2CCC3(CC2)CC(NC(=O)c2ccnnc2)C3)n1	0
Cc1noc(C)c1NC(=O)Nc1ccc2c(c1)C(=O)N(C)[C@@H]1CC[C@@H](CC(=O)N[C@H]3CCN(Cc4ccccc4)C3)O[C@H]1CO2	9
Cc1csc(C(Cc2ccsc2)NC(=O)C2CC(=O)Nc3ccccc32)n1 (stereo not drawn)	16
O=C(O)COCC(=O)NCc1ccco1	17
CCC(=O)NCc1ccccc1-c1cccc(-n2cccn2)c1	-11
CO[C@H](C(=O)N(C)C[C@H]1OCc2ccccc2-c2ccccc2C(=O)N([C@@H](C)CO)C[C@H]1C)c1ccccc1	18
Cc1ccc(C(=O)Nc2c(C(=O)NCc3cccnc3)[nH]c3ccc(C)cc23)cc1	12
O=c1[nH]nc(Cc2ccncc2)n1CCc1ccccc1F	-10
CC(C)CN(Cc1cnn(C)c1)C(=O)c1cccnc1N1CCOCC1	-7
Cn1c(=O)n(C)c2cc(CNC(=O)CC3COCCN3)ccc21 (stereo not drawn)	2
CCCC#Cc1ccc([C@@H]2[C@@H](C#N)N(C(=O)CN3CCOCC3)[C@H]2CO)cc1	2
COc1ccc(-c2cc3c(=O)n(Cc4nc(-c5ccc(OC(C)C)cc5)oc4C)ccn3n2)cc1OC	-92*
N#C[C@H]1[C@H](c2ccccc2-c2ccccc2F)[C@H](CO)N1C(=O)C1CCC1	24
CCOc1ccc(-n2c(C3CCCN(C)C3)n[nH]c2=O)cc1 (stereo not drawn)	72
C[C@H]1CCCCO[C@H](CN(C)Cc2ccc(C(=O)O)cc2)[C@@H](C)CN([C@@H](C)CO)C(=O)c2cc(N(C)C)ccc2O1	55

Fetched by compound from above:
SMILES	Tgondii IFNg
CCC(=O)NCc1ccccc1-c1cccc(-n2cccn2)c1	-11
O=C(O)COCC(=O)NCc1ccco1	17
COc1cc(NC(=S)NCCCN(C)C)c(OC)cc1NC(C)=O	-10
Cc1csc(C(Cc2ccsc2)NC(=O)C2CC(=O)Nc3ccccc32)n1 (stereo not drawn)	16

(list continues)
SMILES	Tgondii IFNg
CCO[C@H]1CC[C@@H]2[C@@H]1OCCN2C(=O)c1ccc2ccccc2c1	-4
Cn1ncc(C(=O)Nc2ccc(OC(F)(F)F)cc2)c1-n1cccc1	73
COc1ccc(F)c([C@@H]2NC(=O)CC[C@H]2NCc2cn[nH]c2-c2ccccc2)c1	-1
Cc1ccsc1C(=O)N1CCc2nc(N3CCOCC3)nc(NC(C)C)c2C1	-20
CCc1ccc(S(=O)(=O)n2nnc3ccccc32)cc1	65
CN(C)[C@@H]1CCN(C(=O)C2CCOCC2)[C@H]1Cc1ccncc1	1
O=C(NCC1CCN(Cc2ccncc2Cl)C1)C1CCCCC1 (stereo not drawn)	-61
CO[C@H]1CN(C)C(=O)c2ccc(NC(C)=O)cc2OC[C@@H](C)N(Cc2cccc(F)c2)C[C@H]1C	198
CCOc1ccccc1-c1nc(Cn2nnc(C(=O)Nc3ccccc3CC)c2C)c(C)o1	-33
O=C(NCc1ccc2c(c1)OCO2)c1cccc(-n2cnnn2)c1	-14
CC(C)c1nnsc1CNC(=O)CC1C(=O)NCCN1C(C)C (stereo not drawn)	185
Cc1nn(C)cc1NC(=O)C[C@@H]1CC[C@@H]2[C@H](COc3ccc(NC(=O)C4CCOCC4)cc3C(=O)N2C)O1	0
Cc1c(Cl)cccc1NC(=O)N1CCC2(CC1)Nc1ccccc1-n1cccc12	253
COc1ccc(-c2nc(CN(c3ccc(OC)cc3)S(=O)(=O)c3cccs3)c(C)o2)cc1	-46
COc1ccc(-c2nccn2CC(C)O)cc1CN1CCCC1 (stereo not drawn)	-5
O=C(c1cnn2c1CCCC2)N1[C@@H]2CC[C@H]1CC(O)C2 (stereo partly drawn)	13
O=C(CC12CC3CC(CC(C3)C1)C2)Nc1ccc2c(c1)OCCO2	18
CC(C)n1c2ccccc2c2c1cc(C(=O)Cc1ccccn1)n2-c1ncccn1	8
CC=Cc1ccc2n(c1=O)C[C@@H]1[C@@H](CO)[C@H](C(=O)N3CCc4ccccc4C3)[C@H]2N1Cc1cocn1 (mixture of isomers)	1
COc1ccc(OCC(=O)NCCc2csc(-c3ccc(F)cc3)n2)cc1	51
COc1cccc(-c2ccc3c(c2)[C@H]2[C@H](CCN2S(=O)(=O)C2=NC(C)C=N2)[C@H](CO)N3C)c1 (stereo partly drawn)	-51
N#Cc1ccc(-c2ccc(C3[C@@H]4CN(C(=O)C5CCCCC5)C[C@H]3N4)cc2)cc1 (stereo partly drawn)	-46&-65
Cc1cc(C)cc(C(=O)N2CCC3(CC2)NC(=O)c2cc(F)ccc2N3C)c1	30
Cc1ccccc1S(=O)(=O)N1[C@H](CO)[C@@H](c2ccc(C#CC3CC3)cc2)[C@@H]1C#N	10
COc1ccccc1OC(C)c1nc(Cc2cccc(C(F)(F)F)c2)no1 (stereo not drawn)	-55
Cc1ccc(-c2nc(CSc3nc4c(=O)[nH]cnc4n3-c3ccc(C)cc3)c(C)o2)cc1	-95*
O=C1CCC(c2ccc(Cl)cc2)=NN1	-47
Cc1nn(Cc2nc(-c3ccc(NC(=O)C4CCCO4)cc3)oc2C)c(C)c1C (stereo not drawn)	34
CSc1ccc(-c2nc(NC(C)=O)c3c(=O)oc4ccccc4c3n2)cc1	59
CCN(Cc1cc(Cl)ccc1OC)C(=O)c1ccc(CO)cc1	-2
Cc1ccccc1C(NC(=O)Cn1[nH]c(=O)ccc1=O)c1ccncc1 (stereo not drawn)	13
c1cc(Cn2ccnc2C2CCCC2)c2cc[nH]c2c1	13
Cc1ccccc1-c1ccc([C@@H]2[C@@H](CO)N3C(=O)CN(C(=O)c4ccncc4)C[C@@H]23)cc1	-43
COc1ccc(OC)c(-n2cnnc2C(C)n2cccn2)c1 (stereo not drawn)	3
O=S(=O)(NC[C@@H]1[C@H](c2ccccc2)[C@H](CO)N1CC1CC1)c1ccccc1	-6
Cc1cc(C(=O)NC2(CN3CCOCC3)CCCC2)n[nH]1	-5
CC(=O)Nc1ccc(C(=O)N(Cc2ccc(C)o2)C2(C(=O)NCc3ccccc3)CCN(C(C)=O)CC2)cc1	142
CC(C)C(=O)Nc1cccc(-c2cccc3c2CCNC3)c1	3
CCOC(=O)CC(=O)N1CCSC1COc1ccccc1OC (stereo not drawn)	19&12
CC(C)N(C(=O)c1ccccc1-c1ccccc1C(=O)N(C(C)C)C(C)C)C(C)C	-87*
COc1cc(NC(=O)c2c(C)oc3c2C(=O)CCC3)ccc1NC(=O)CC(C)C	-5
C[C@H]1CN([C@@H](C)CO)C(=O)Cc2cc(NC(=O)Cn3cnnn3)ccc2O[C@@H]1CN(C)S(=O)(=O)c1ccc(Cl)cc1	-2
CC(=O)N1[C@H](CNC(=O)CN(C)C)[C@H](c2ccc(C3=CCCCC3)cc2)[C@@H]1CO	11
CS(=O)(=O)N1CCC(c2nnc3ccc(C(=O)N4CCCC4)cn23)C1 (stereo not drawn)	84
C[C@H]1CN([C@@H](C)CO)C(=O)CCCn2nncc2CO[C@@H]1CN(C)Cc1ccccc1C(=O)O	-12
CCO[C@H]1CN(C(=O)c2ccnnc2)[C@H]2COC[C@@H]12	22
Cc1cc(C)n2nc(C(=O)N3CCc4c(c(C(=O)N5CCOCC5)nn4CCC(C)C)C3)cc2n1	9
O=C(C[C@@H]1CC[C@@H]2[C@H](COC[C@@H](O)CN2C(=O)c2ccncc2)O1)Nc1ccc(-c2ccccc2)cc1	-33
C[C@@H]1CCCCO[C@H](CN(C)C(=O)Nc2ccccc2)[C@H](C)CN([C@@H](C)CO)C(=O)c2cc(NC(=O)Nc3ccccc3)ccc2O1	17
CN(C)c1ncccc1CNc1ccc(CCc2nc3ccccc3n2C)cc1	182
CC(=O)N1CC2(C1)[C@@H](c1ccccc1)[C@@H](CO)N2C(=O)c1cnccn1	25
O=C1C[C@@H](c2ccccc2)Oc2cc(O)cc(O)c21	1&14
O=Cc1ccccc1Oc1ccccc1	4
O=S(=O)(C1CC1)N1CC[C@@H]2[C@H]1CCN2c1ncc(F)cn1	-1
Cc1ccc(F)cc1-c1ccccc1C(N)=O	-41
CC(C)(O)C#Cc1ccc(-c2nccn2CCc2cnc[nH]2)s1	4
[N-]=[N+]=NC1C[C@H](n2ccc(=O)[nH]c2=O)O[C@@H]1CO (stereo partly drawn)	6
NC(=O)CN1CCC=C(CNC(=O)COc2ccccc2)C1	6
O=C(c1ccco1)N1C[C@H]2OC(=O)N(CCCN3CCOCC3)[C@H]2C1	2
CC(C)c1noc(CN(C)C2CCN(C(=O)c3cccs3)CC2)n1	1

Carrying on:
SMILES	Tgondii IFNg
Cc1n[nH]c(C)c1S(=O)(=O)N1CCCC(COc2ccccc2F)C1 (stereo not drawn)	-6
Cc1ccc(NC(=O)c2ccco2)cc1NC(=O)C(C)(C)Oc1ccc(Cl)cc1	2
Cc1cccc(C(=O)NCN2CCN(c3ccccc3C#N)CC2)c1	14
Cc1nc(-c2cccs2)sc1-c1ccnn1C(=O)NC(C)C	98
CCSc1nnc(CNC(=O)NCc2ccccc2)n1C	15
O=S(=O)(c1cccc(F)c1)N1CC[C@@H]2[C@@H](CO)Nc3ccc(C#Cc4ccccc4F)cc3[C@@H]21	0
CCCNc1nc(-c2ccc(OC)cc2)nc2ccccc12	-70
Cc1nnc(SCCCn2cnc(-c3ccccc3)c2C2CCOC2)s1 (stereo not drawn)	-16
CCn1c(CNC(=O)c2c(C)nc3ccc(Cl)cn23)nc2ccccc21	-26
CCN(Cc1noc(C)n1)C(=O)CCc1c[nH]c2ccccc12	2
O=C(CC1COCCN1)N1CCC(OCc2cccnc2)CC1 (stereo not drawn)	0
COCCN1C(=O)CCC12CCN(C(=O)CC1CC1)CC2	453
O=C(c1ccc2c(c1)OCO2)N1CC[C@@H](O)[C@@H]1Cc1cccnc1	206
CN(C)S(=O)(=O)N1CCC2(CC1)OC(C(=O)N1CCCC1)Cn1ccnc12 (stereo not drawn)	-2
O=C(Nc1nc(-c2ccccc2)cs1)c1sc2cc(F)ccc2c1Cl	42

An excerpt of these results, comma-delimited.
molecule,Tgondii IFNg
Cc1nc(-c2cccs2)sc1-c1ccnn1C(=O)NC(C)C,98
CCSc1nnc(CNC(=O)NCc2ccccc2)n1C,15
Cc1nnc(SCCCn2cnc(-c3ccccc3)c2C2CCOC2)s1 (stereo not drawn),-16
Cc1cccc(C(=O)NCN2CCN(c3ccccc3C#N)CC2)c1,14
CCn1c(CNC(=O)c2c(C)nc3ccc(Cl)cn23)nc2ccccc21,-26
O=C(c1ccc2c(c1)OCO2)N1CC[C@@H](O)[C@@H]1Cc1cccnc1,206
O=C(Nc1nc(-c2ccccc2)cs1)c1sc2cc(F)ccc2c1Cl,42

Screens (PubChem BioAssay)

Only part of the results is shown. The share of hits here may be higher or lower than overall.
